CSC inhib – cancer stem cell viability inhibitors, primary screen, luminescence; inhibition, % at 7.5 µM; cancer stem cell-like cells viability; 300,000 tested, 1.1% active;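 active = mean at 75% or more and at least half the replicates too; tested in HMLE shEcad cells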;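 also: 0% = median of negative and 100% = median of positive control wells; the first replicate is given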
Env fusion inh – inhibitors of HIV-1 Env-driven cell-cell fusion, primary screen, HeLa-JRFL effector, CEM21 target cells, luciferase; 360,000 tested, 1.1% active; AID 651610, 2012; inhibition, % at 12.3 µM;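 active = mean replicate inhibition score of at least 50 and every replicate individually at or above 50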;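 also: 0% = plate neutral controls and 100% = maraviroc near 300 nM; one replicate is shown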
PABP FP inh – PABP poly(A) RNA binding inhibitors, primary screen, biochemical, fluorescence polarization, uHTS. Polyadenylate-binding protein 1 (Homo sapiens), P11940. AID 2014, 2009. inhibition, % at 35 µM. 290,000 tested, 1% active;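 active = 50% or more with normal probe brightness, or confirmed in later tests; about a fifth of its hits are not listed in these tables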;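 also: calls also rest on retests at 20 µM and on dose response follow-up; controls were probe without protein and protein plus probe with vehicle; some compounds called inactive have numbers as strong as hits; many hits fall short of the cut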
Target sequence (P11940 whole entry, looked up): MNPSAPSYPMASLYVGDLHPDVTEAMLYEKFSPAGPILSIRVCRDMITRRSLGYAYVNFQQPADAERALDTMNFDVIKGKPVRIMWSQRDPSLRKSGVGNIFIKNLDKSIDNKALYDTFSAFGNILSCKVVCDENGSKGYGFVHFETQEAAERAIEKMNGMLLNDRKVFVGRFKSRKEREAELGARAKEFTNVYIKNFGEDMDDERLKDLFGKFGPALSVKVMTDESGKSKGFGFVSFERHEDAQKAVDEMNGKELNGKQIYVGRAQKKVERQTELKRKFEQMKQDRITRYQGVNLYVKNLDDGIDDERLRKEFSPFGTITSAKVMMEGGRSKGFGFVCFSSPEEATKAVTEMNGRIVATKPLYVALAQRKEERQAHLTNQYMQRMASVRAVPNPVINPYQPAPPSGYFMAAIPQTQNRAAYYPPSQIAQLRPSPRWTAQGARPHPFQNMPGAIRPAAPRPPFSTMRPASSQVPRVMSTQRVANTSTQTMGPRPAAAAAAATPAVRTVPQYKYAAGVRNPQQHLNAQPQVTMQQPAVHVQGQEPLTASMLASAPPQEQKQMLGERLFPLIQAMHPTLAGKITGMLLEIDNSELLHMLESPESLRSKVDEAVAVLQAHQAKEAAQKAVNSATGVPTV
Rce1 inhib – yeast Rce1p protease inhibitors, primary screen, biochemical, fluorescence, cell-free homogeneous | CAAX prenyl protease 2 (Saccharomyces cerevisiae (strain ATCC 204508 / S288c)), Q03530 | yeast membranes, quenched prenylated peptide cleavage fluorescence | calls only | 290,000 tested, 0.27% active | AID 2563, 2010;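 active = fall in fluorescence gain of 50% or more versus controls, with final raw signal at or below 3038400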;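 also: plate controls were neutral control wells for no effect and wells lacking membranes for full effect; tested at 10 µM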
Target sequence (Q03530 whole entry, looked up): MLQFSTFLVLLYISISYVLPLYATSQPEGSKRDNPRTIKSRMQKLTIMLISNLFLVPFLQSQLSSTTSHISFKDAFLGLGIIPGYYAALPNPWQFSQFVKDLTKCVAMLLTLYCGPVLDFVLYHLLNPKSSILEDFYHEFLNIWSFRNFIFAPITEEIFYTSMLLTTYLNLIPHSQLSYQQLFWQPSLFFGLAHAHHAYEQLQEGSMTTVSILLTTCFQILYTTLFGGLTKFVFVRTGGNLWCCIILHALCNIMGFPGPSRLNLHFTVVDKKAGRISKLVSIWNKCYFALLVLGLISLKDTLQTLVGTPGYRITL
eIF4H FP inh – human eIF4H binding inhibitors, primary screen, translation initiation inhibitor project, biochemical, uHTS, fluorescence polarization; eIF4H fluorescence polarization binding assay; 290,000 tested, 0.94% active; inhibition, % at 35 µM; Eukaryotic translation initiation factor 4H (Homo sapiens), Q15056; AID 2012, 2009;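 active = 50% or more with normal probe brightness, or confirmed in later tests; about a fifth of its hits are not listed in these tables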;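 also: calls also rest on retests at 20 µM and on dose response follow-up; 0% = protein and probe with vehicle and 100% = probe without protein; strong numbers were not always called active; many hits fall short of the cut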
MT1-MMP act inh – blockers of MT1-MMP proenzyme processing, primary screen, HT1080 RFP-PRO-GFP cells, GFP/RFP fluorescence; 360,000 tested, 0.061% active; AID 651647, 2012; GFP/RFP ratio change, % at 20 µM; GFP/RFP ratio fluorescence, overnight; percent of plate control window, DMSO zero; Matrix metalloproteinase-14 (Homo sapiens), P50281;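 active = GFP/RFP ratio change of at least 30% with cell ATP level not reduced by more than half and red fluorescence within 50% of control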; also: strong numbers were not always called active
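Assay system: HT1080 cells carrying an RFP-PRO-GFP reporter | Dosing: Single dose of 20 µM compound, 1% DMSO final | Incubation: Cells overnight before dosing, compound overnight, 37 °C, 5% CO2 | Evaluation: GFP/RFP fluorescence ratio | Control set: DMSO and RFP-L50D-GFP cell wells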
Yeast UUG start – modulators of yeast start codon fidelity, primary screen, whole organism, S. cerevisiae, single point, plate reader; S. cerevisiae UUG-firefly luciferase reporter, luminescence/redox ratio; activity score, % at 18.7 µM; 350,000 tested, 0.13% active;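 active = replicate mean at a twofold rise or more, about +100% in these data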;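 also: firefly luciferase made from a UUG start codon reports start codon fidelity; reporter light over untreated wells divided by growth signal over untreated wells; some hits fall short of that in this replicate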
eIF4H FP inh retest – also measured in eIF4H FP inh; calls as there; inhibition, %; compound at 20 µM; confirmation average;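 mean of two retest wells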
PABP FP inh retest – also measured in PABP FP inh; calls as there; inhibition, %; compound at 20 µM; confirmation repeats;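 mean of two retest wells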
MT1-MMP act inh RFP – recorded beside MT1-MMP act inh, whose call it bears; RFP signal change, %; measured here: RFP expression control read;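 0 = vehicle wells; hits needed this value within 50% of zero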
* hit, by the source's call; i = inactive; x = no result given; + = active, no number.

SMILES	CSC inhib	Env fusion inh	PABP FP inh	Rce1 inhib	eIF4H FP inh	MT1-MMP act inh	MT1-MMP act inh RFP	Yeast UUG start	others
CSCCC(NC(=O)c1ccccc1Br)C(=O)Nc1ccc(C)cc1 (stereo unspecified)	-3	13	0	i	0	-6	-3	8
C/C(=N\Nc1nc2ccccc2nc1C)c1ccccc1O	11	-19	-1	i	4	6	5	-7
Cc1ccc2c(c1)[C@H]1[C@H](CO2)[C@H](c2ccccc2)[C@]2(C)C(=O)Nc3ccc(Cl)cc3C(=O)N12	37	21	x	x	x	-23	-12	-10
Cc1c(CCC(=O)O)c(=O)oc2cc(OCc3cccc(F)c3)ccc12	-4	-3	12	+	2	1	3	-5
O=C1C(=O)N(CCO)C(c2ccccc2)/C1=C(\O)c1ccccc1 (stereo unspecified)	-4	-24	5	i	-12	4	6	0
O=C(CN1C(=O)S/C(=C\c2ccccc2)C1=O)NCCCn1ccnc1	32	-28	1	i	-2	3	0	-13
O=C(CCCN1C(=O)c2ccccc2C1=O)Nc1cccc(S(=O)(=O)NC2=NCCC2)c1	11	2	-2	i	8	0	1	x
CCOc1cccc2sc(N(CCN(CC)CC)C(=O)c3cccc(N4C(=O)CCC4=O)c3)nc12	-3	-6	x	i	x	0	3	1
Cc1nn(-c2ccccc2)nc1C(=O)Nc1cccc(C(=O)NC2CC2)c1	x	-39	x	x	x	-4	-12	-10
O=C(CNC(=O)c1ccco1)Nc1ccc(S(=O)(=O)N2CCCC2)cc1	-7	-33	9	i	8	-1	4	-18
O=C(NCc1ccncc1)c1nc(-c2ccc(C(F)(F)F)cc2)no1	-1	38	1	i	1	-2	-13	x
COc1ccc(Cl)cc1NS(=O)(=O)c1c(C)nc2sccn2c1=O	4	17	-1	i	-7	7	2	-13
NC(=O)C1CCN(CC(=O)NC(=O)NC2CCCC2)CC1	-1	-26	-6	i	-5	-4	-1	-17
O=c1cc(-c2ccccc2)nc(N2CCN(Cc3ccc4c(c3)OCO4)CC2)[nH]1	-7	x	-3	x	8	4	0	-8
Cc1ccccc1NS(=O)(=O)c1ccc(OCC(=O)NCc2ccccn2)cc1	-11	9	5	i	-4	-4	2	x
OCCOCCn1c(C2CCCN2c2nc(-c3ccc(F)cc3)cs2)nc2cc(Cl)c(Cl)cc21 (stereo unspecified)	-14	34	x	i	x	-3	-9	-29
CC(=O)Nc1ccc(Oc2cncc(Cl)c2)nc1	-8	21	-1	i	0	-7	-5	x
CN(C)C(CNC(=O)CCc1nc2cc(Cl)ccc2n(Cc2ccccc2)c1=O)c1ccccc1 (stereo unspecified)	11	x	x	i	x	-10	-5	-14
CCN(CC)CCCNC(=O)c1cn(CC)c2ccc(S(=O)(=O)N3CCc4ccccc4C3)cc2c1=O	-3	15	-6	i	5	-5	-1	x
COc1cc(/C=N\NC(=O)C2COc3ccccc3O2)cc(OC)c1O (stereo unspecified)	-2	-10	-5	i	-9	-2	-1	4
CC(=O)c1ccc(NC(=O)CSc2nc3[nH]ncc3c(=O)[nH]2)cc1	-3	-1	x	i	x	2	0	-19
Cc1cc(OCc2cn(CC(=O)c3ccc(O)cc3)nn2)ccc1[N+](=O)[O-]	x	-1	x	x	x	0	0	-11
CN(CC(=O)Nc1ccc(F)c(F)c1F)C(=O)C1CCC1	0	13	x	i	x	3	1	-5
CNS(=O)(=O)c1cc(S(=O)(=O)NC)c2cccc3c2c1NC3=O	-4	-84	9	i	0	-4	-2	-11
COc1cccc(Nc2nc(-c3sc(C)nc3C)cs2)c1	32	-82	-2	i	-6	4	-11	1
CCOC(=O)c1c(S(=O)(=O)Nc2ccc(C)c(F)c2)c(C)n(C)c1C	17	-2	9	i	-2	-3	1	0
CCOP(=O)(OCC)C(C#N)=C1SCN(c2ccc(Cl)cc2)CS1	21	25	-11	i	0	-2	1	-27
CC(C)[C@H](NC(=O)c1ccco1)C(=O)OCc1cc(=O)n2c(n1)sc1ccccc12	-29	-46	38	i	80	1	-2	-1	eIF4H FP inh retest=-13;PABP FP inh retest=8
COC(=O)c1c(NC(=O)COC(=O)c2ccc(Cl)cc2[N+](=O)[O-])sc2c1CCCCC2	0	1	-2	i	-1	1	3	x
Fc1ccccc1COc1cccc2cccnc12	-8	-28	x	i	x	1	-4	-1
COc1ccc(-c2nc3cc(C)ccn3c2NC(=O)c2c(F)cccc2Cl)cc1	-5	-13	0	i	-13	3	5	-26
COc1ccccc1CNCc1ccc(OC)c2ccccc12	3	29	x	i	x	2	-1	x
COc1ccc(C(=O)NCCC(=O)N2CCC3(CC2)NCCc2[nH]cnc23)cc1	8	14	2	i	-6	1	5	-32
COCCn1c(=NC(=O)CCS(=O)(=O)c2ccccc2)sc2ccccc21	-2	x	-4	i	9	2	-4	-19
COC(=O)C(NC(C)=O)(Nc1ccccc1)C(=O)OC	-12	-167	10	i	-1	-2	2	0
Cc1ccc(CN(Cc2ccco2)C(=S)NCC(=O)NC2CC2)cc1	-16	-27	-10	i	2	3	3	x
O=C(CCN1C(=O)/C(=C/c2ccc(F)cc2)SC1=S)NNC(=O)c1ccncc1	2	12	7	i	-8	1	2	-12
O=C1CC(c2ccccc2)CC(=NCCO)/C1=C(\O)CCCN1C(=O)c2ccccc2C1=O (stereo unspecified)	2	-18	-3	i	3	-2	2	x
Cc1ccc(-c2nc(-c3ccccn3)sc2CC(=O)O)cc1	-6	-5	-10	i	8	7	5	x
Cc1cccc(S(=O)Cc2ccc(C(=O)N3CCN(C(=O)c4ccco4)CC3)o2)c1 (stereo unspecified)	-8	-7	8	i	-4	-6	-1	-11
CCOCCCNC(=O)COC(=O)/C=C/c1ccc(S(=O)(=O)N2CCc3ccccc32)cc1	-16	-3	-13	i	4	-1	2	x
O=C(c1ccccc1Cc1ccccc1)N1CCN(S(=O)(=O)c2ccc(F)cc2)CC1	3	-13	x	i	x	-2	-3	-2
O=C(COC(=O)c1ccccc1-n1cnnn1)c1ccc(F)cc1	0	-64	x	x	x	-2	5	-33
O=C(COC(=O)c1cc(Br)ccc1O)NNC(=O)c1ccc([N+](=O)[O-])cc1	1	11	x	i	x	-1	1	-16
COCC(=O)Nc1nc2ccccc2s1	-4	-33	1	i	4	-6	2	0
CN(C)c1cccc(C(=O)Nc2nc3ccccc3[nH]2)c1	2	-85	-5	i	0	9	-1	-29
Cc1cccc(C)c1OCC(=O)Nc1oc(-c2ccccc2)c(-c2ccccc2)c1C#N	23	x	x	i	x	-14	-25	-24
CCOc1ccccc1NC(=O)CSc1nc2c(c(=O)n(C)c(=O)n2C)n1C	-14	7	3	i	2	-1	-1	-7

Quoted at random: five entries already listed, in no set order.
SMILES	CSC inhib	Env fusion inh	PABP FP inh	Rce1 inhib	eIF4H FP inh	MT1-MMP act inh	MT1-MMP act inh RFP	Yeast UUG start	others
CCOc1ccccc1NC(=O)CSc1nc2c(c(=O)n(C)c(=O)n2C)n1C	-14	7	3	i	2	-1	-1	-7
Cc1cccc(S(=O)Cc2ccc(C(=O)N3CCN(C(=O)c4ccco4)CC3)o2)c1 (stereo unspecified)	-8	-7	8	i	-4	-6	-1	-11
O=C(CCN1C(=O)/C(=C/c2ccc(F)cc2)SC1=S)NNC(=O)c1ccncc1	2	12	7	i	-8	1	2	-12
Cc1ccc(-c2nc(-c3ccccn3)sc2CC(=O)O)cc1	-6	-5	-10	i	8	7	5	x
CN(C)c1cccc(C(=O)Nc2nc3ccccc3[nH]2)c1	2	-85	-5	i	0	9	-1	-29

Remaining list, next part:
SMILES	CSC inhib	Env fusion inh	PABP FP inh	Rce1 inhib	eIF4H FP inh	MT1-MMP act inh	MT1-MMP act inh RFP	Yeast UUG start	others
COc1ccc(S(=O)(=O)N(C)C[C@H]2Oc3c(NC(=O)CCC(F)(F)F)cccc3C(=O)N([C@H](C)CO)C[C@@H]2C)cc1	-13	7	x	x	x	-2	3	7
O=C(NCCCCNC(=O)c1ccccc1Cl)c1ccccc1Cl	-2	-2	5	i	1	3	4	-18
C=CCN(CC=C)C(=O)Nc1cc(Cl)ccc1OC	-3	-21	-6	i	-10	-7	-6	-8
CC(=O)c1c(N2CCOCC2)nc(=S)n(-c2cc(C)ccc2C)c1C	10	x	1	i	5	0	5	-5
O=Cc1cccnc1SCc1ccccc1	0	-58	x	i	x	10	7	-7
COc1cccc(C2C3=C(Nc4[nH]n(-c5ccccc5)c(=O)c42)c2ccccc2C3=O)c1 (stereo unspecified)	16	x	3	x	-1	x	x	x
CC(=O)Nc1ccc2nc(SCC(=O)Nc3ccc(N4CCOCC4)c(Cl)c3)sc2c1	-2	40	45	i	-11	-1	-5	-15
Cc1c(CCO)c(=O)n(-c2ccccc2)n1S(=O)(=O)c1ccc(Cl)cc1	-31	-10	8	i	-4	10	5	-10
CC(C)(C)OC(=O)CNC(=O)c1nc[nH]c1C(=O)N1CCN(C(=O)OC(C)(C)C)CC1	-1	-16	-3	i	5	3	5	-22
CN(CC(=O)Nc1cccc(F)c1)C(=O)CN1C(=O)C2CC=CCC2C1=O (stereo unspecified)	-7	-91	x	i	x	-1	0	x
Cc1cc(C)c(S(N)(=O)=O)c(C)c1N(C)S(=O)(=O)c1ccccc1	-14	0	-8	i	8	7	4	-8
Cc1cc(Cl)c2oc(C(=O)N3CCN(C4CCS(=O)(=O)C4)CC3)c(C)c2c1 (stereo unspecified)	-5	3	-3	i	-4	3	4	-1
COc1cc2c(cc1NC(=O)COC(=O)Cn1cnc3ccccc31)oc1ccccc12	x	-98	33	i	-4	11	0	-5
O=C(NC1CCCCC1)C(c1ccco1)N(Cc1cccnc1)C(=O)C1COc2ccccc2O1 (stereo unspecified)	-10	20	14	i	8	-1	-3	-20
O=C1C(Cc2ccccc2)Nc2ncnc(N3CCN(c4ccccc4)CC3)c2N1Cc1ccccc1 (stereo unspecified)	12	1	x	i	x	-5	-2	-16
CCC(Sc1nc2ccccc2o1)C(=O)Nc1nnc(C)s1 (stereo unspecified)	6	x	8	i	-2	-4	2	-14
O=C(c1ccc(NS(=O)(=O)c2ccc3c(c2)OCCO3)cc1)N1CCCCC1	0	-5	3	i	-1	-5	-21	-6
CC1CCCCN1C(=O)c1cc(-c2ccc3c(c2)OCO3)on1 (stereo unspecified)	-2	-84	4	i	-8	3	0	-13
Clc1ccc(-c2csc3ncnc(NCCN4CCOCC4)c23)cc1	13	63*	-2	i	-6	-17	-15	-38
Cc1cc(/C=N/NC(=O)c2cc3ccccc3o2)c(C)n1C	-4	4	12	i	11	-1	4	-17
COC(=O)c1ccccc1Oc1nc(Cl)cc(OC)n1	0	-14	2	i	2	11	0	-8
COc1ccccc1NC(=O)c1cc2ccc(O)cc2o/c1=N\O	28	x	9	i	-10	-5	-8	-16
COc1ccc(-n2c(=S)[nH]c3cc(C(=O)NCCCN4CCOCC4)ccc3c2=O)cc1OC	-12	-5	2	i	-8	1	1	-15
Cc1ccccc1S(=O)(=O)Cc1ccc(C(=O)NCCCOC(C)C)o1	-7	-53	-2	i	1	4	8	0
O=C(O)C1C2C=CC(C2)C1C(=O)NCCc1ccccc1 (stereo unspecified)	-5	-133	-16	i	-14	1	2	-11
CC1CCN(c2c([N+](=O)[O-])c(=O)oc3ccccc23)CC1	-8	-1	13	i	-5	-2	2	x

Screening data: PubChem BioAssay, several laboratories
